# Choline anaer gr = inhibitors of anaerobic choline-dependent gram-negative bacterial growth | calls only | Gram-negative bacterium anaerobic choline minimal medium, absorbance growth; hits give low values; many inactives read as strong as hits in the columns shown | actives 0.2% (n = 55,000);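 active means growth z-score on choline under -2 at 7 or 20 h with little or no fall on glycerol, limits in tiers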;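 further: stock transfer was 300 nL into about 50 µL; the organism is E. coli; final concentration not given here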
# Choline anaer gr early = recorded beside Choline anaer gr, whose call it bears; z-score; measured here: choline growth z-score, timepoint 1;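 score of optical density at 7 h as mean of two plates; lower means less growth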
# Starred values were filed as active, the others as inactive; i = inactive; & = joins results of further samples. This is a subset. The share of hits here may be higher or lower than overall.
Choline anaer gr	Choline anaer gr early	Compound
i	-0.49	O=C(NC1CCCCC1)N1CCCC1c1cccc(F)c1 (stereo not given)
i	-0.93	COc1cccc(Nc2cc(C)ncn2)c1
i	0.49	COCCCn1c(SCc2ccc(Cl)cc2)nc2c(-c3ccccc3)cn(C)c2c1=O
i	0.31	CCc1ccc(NC(=O)Nc2ccccc2OCc2cc(=O)n3ccc(C)cc3n2)cc1
i	0.5	C[C@]1(Cn2ccnn2)C(C(=O)O)N2C(=O)CC2S1(=O)=O (stereo not given in full)
i	0.39	O=C(NC1CC1)C1CCCN(C(=O)c2cc(-c3ccccn3)n[nH]2)C1 (stereo not given)
i	1.1	O=C1CC(c2cc(F)cc(F)c2)c2c(nc(SCc3ccc(F)cc3)[nH]c2=O)N1 (stereo not given)
i	0.36	COc1ccc(-c2nc(CCNC(=O)COc3cc(C)ccc3C(C)C)cs2)cc1
i	0.55	COc1ccc(NC(=O)N2CCCC2C(=O)Nc2ccc(C)c(Cl)c2)cc1 (stereo not given)
i	-2.1&-2.2&-1.6	O=c1[nH]c(=O)n(C2CCCO2)cc1F (stereo not given)
i	-1.4	Fc1ccc(CNc2ccccn2)cc1
i	0.44	CC(C)[C@@H]1NC(=O)[C@H](Cc2ccccc2)NC(=O)[C@@H](CC(=O)O)NC(=O)CNC(=O)[C@H](CCCN=C(N)N)NC1=O
i	1	COc1ccc(NC(=O)c2cc(-c3ccncc3)n[nH]2)c(OC)c1
i	-0.06	O=C(CCc1nc2ccccc2n(CC(=O)Nc2cc(F)cc(F)c2)c1=O)NCc1ccccc1
i	0.85	CCS(=O)(=O)c1ccc(-c2ccc(NC(=O)c3ccc(OC)cc3)cc2)nn1
i	-0.88	CS(=O)(=O)Nc1cc(C(=O)NCc2ccc(Br)cc2)ccc1N1CCNCC1
i	-1.5	COc1ccc(Oc2ncc(-c3cccc(C(=O)NC(C)C)c3)cn2)cc1
i	1.7	CCOc1ccc(CN2C(=O)c3ccccc3CC2(C)C(=O)NCc2ccc(C)cc2)cc1 (stereo not given)
i	-0.31	CC1CCN(S(=O)(=O)c2cccn(Cc3ccc(F)cc3Cl)c2=O)CC1
i	-0.08	Fc1ccc(OCc2nn3c(CSc4ccccc4)nnc3s2)cc1
i	0.76	Cc1ccc(C(=O)C(C)n2nc3n(C(C)C)c(=O)c4ccc(C(=O)NC(C)C)cc4n3c2=O)cc1C (stereo not given)
i	-0.23	O=S(=O)(c1ccccc1)c1nc(-c2ccc(Cl)cc2)oc1NC1CC1
i	0.13	C=CCOc1cc(C2CC(=O)Nc3c2c(C)nn3-c2nncc(-c3ccc(C)cc3)n2)ccc1OC (stereo not given)
i	0.31	CCOC(=O)c1nc2cc(C)c(C)cc2nc1N1CCN(c2ccccn2)CC1
i	0.73	CC1CCN(C(=O)c2cc(-c3cccnc3)n(-c3ccccc3)n2)CC1
i	0.04	COc1ccc2nc(-n3nc(C)c4c3NC(=O)CC4c3cc(C)sc3C)sc2c1 (stereo not given)
i	-1.4	COc1cccc(NC(=O)Nc2ccc3nc(N4CCN(C)CC4)cc(C)c3c2)c1
i	-0.49	Cc1ccc(N2C(=O)CCS2(=O)=O)cc1S(=O)(=O)NCC(C)C
i	0.53	COc1cccc(C2Nc3ccc(C)cc3[C@H]3OCC[C@@H]23)c1OC1CCCC1 (stereo not given in full)
i	-1.5	O=C(c1sc2ncccc2c1-n1cccc1)N1CCN(c2ccc(F)cc2)CC1
i	-1.5	COc1ccc(OC)c(CNC(=O)c2cc(C)nc3c2c(C)nn3-c2ccc(C)c(C)c2)c1
i	0.01	O=C(Cc1cccs1)N1CCCCC1CCN1CCOCC1 (stereo not given)
i	0.54	COCc1nc2ccccc2n1CCCOc1ccccc1C
i	-0.11	CCCOc1ccc(C(=O)Nc2cc3c(cc2Sc2ccccc2)n(C)c(=O)c(=O)n3C)cc1
i	-0.27	Cc1nc2ccccc2c2c1C(=O)N(c1cccc(C(=O)OCc3ccccc3Cl)c1)C2=O
i	-0.34	CCOC(=O)c1cc(S(=O)(=O)N2CCCC2C(=O)NCCOC)cn1C (stereo not given)
i	-0.14	CCC(C(=O)NCCN1CCN(C)CC1)N1C(=O)CCn2nc(C)cc21 (stereo not given)
i	-0.58	CC1(C)C(=O)N(CC(=O)N2CCCC2)c2ccccc21
i	0.91	Cc1sc(C)c(S(=O)(=O)N2CCN(c3ccccc3F)CC2)c1-c1cc(C(F)(F)F)on1
i	-0.95	COc1ccc(C2CC(=O)Nc3nc(N)[nH]c(=O)c32)cc1 (stereo not given)
i	-0.35	Cc1cc(N2CCC(C)CC2)n2nc(CN3CCN(C(C)C)CC3)nc2n1
i	-0.73	Cc1cc(C)n(CC(=O)Nc2oncc2-c2ccccc2)c(=O)c1S(=O)(=O)c1ccc(Br)cc1
i	0.04	CCc1cc(C2CCCN2S(=O)(=O)c2ccc3c(c2)CCCC3)on1 (stereo not given)
i	0.29	O=C1COc2ccc(S(=O)(=O)N3CCCC(C(=O)NCc4ccc(Cl)cc4)C3)cc2N1 (stereo not given)
i	-0.6	CCc1nn2c(=O)cc(CN(Cc3ccc(C)cc3)CC(C)C)nc2s1
i	0.35	O=C(Cn1nc(S(=O)(=O)c2ccc(Br)cc2)ccc1=O)NCC1CCCO1 (stereo not given)
i	-1.4	COC(=O)c1c(-c2ccc(Cl)cc2)noc1N1CCC(N2CCCCC2)CC1
i	-0.41	O=C(CSc1n[nH]c(-c2ccccc2)n1)NCC1CCCO1 (stereo not given)
i	0.24	CC(C)c1cc(C2CCCN2C(=O)NC(C)(C)C)on1 (stereo not given)
i	-1.3	Cc1ccc(N2C(=O)CCS2(=O)=O)cc1S(=O)(=O)Nc1ccc2c(c1)OCO2
i	-0.58	CCOC(=O)c1c(C)[nH]c(C)c1S(=O)(=O)N1CCC(C(=O)NCCc2nc3ccccc3[nH]2)CC1
i	1.4	COc1ccc(-c2noc(CSc3ccc(-c4ccc5c(c4)OCO5)nn3)n2)cc1OC
i	0.78	Cc1ccccc1-c1nn2c(C)nnc2s1
i	0.65	Cc1nn(C)c(C)c1-c1cc2n(n1)CCCN(C(=O)C1CCC1)C2
i	0.8	CSCC[C@H](NC(=O)C1CCCCC1)C(=O)NCc1cscn1
i	0.1	CN1CCc2c(sc3c2CN(C(=O)Nc2ccc(Cl)cc2)C(c2ccc(F)cc2)c2cccn2-3)C1 (stereo not given)
i	-0.25	Cc1ccc(-c2c(C)nn3c2NC(=O)CCC3=O)cc1S(=O)(=O)N1CCn2c1nc1ccccc12
i	0.79	COc1ccc(Nc2cc(C)nc(Nc3ccc(NC(=O)Cc4ccccc4)cc3)n2)cc1
i	-0.1	CCc1noc2nc(CCC(=O)NC(C)C)nc(N3CCCCC3)c12
i	-1.6	COc1nc(SC)nc2c1oc1ccccc12

# The list continues.
Choline anaer gr	Choline anaer gr early	Compound
i	2.5	O=S1(=O)c2ccccc2NC(c2cccc(Cl)c2)N1Cc1ccccc1 (stereo not given)
i	0.89	O=C(CSc1nc(=O)n(Cc2ccncc2)c2c1CCC2)Nc1ccccc1
i	1.1	Cc1ccc(-c2noc3c(NC4CC4)ncnc23)cc1
i	0.02	CCC(=O)Nc1cc(-n2cnnn2)ccc1N1CCCC1
i	2	Cc1nc(-c2cccc(-c3noc(C(=O)NCCC4=CCCCC4)n3)c2)cs1
i	1	CCc1ccc(NC(=O)C2CCCN2S(=O)(=O)c2ccc3c(c2)CCCC(=O)N3)cc1 (stereo not given)
i	-0.53	COc1ccc(NC(=O)C2CCCN(S(=O)(=O)c3cc4c(cc3C)NC(=O)CO4)C2)cc1 (stereo not given)
i	1	Cc1cccc(CSc2nc3ccncc3n2CC(=O)Nc2cccc(Cl)c2C)c1
i	-0.89	CC(C)NC(=O)CN1CCN(c2ccc(NC(=O)C3CC3)c(C(=O)O)c2)CC1
i	3.4	Cc1cccc(-c2nc(C3CCN(C(=O)c4ccc(Br)cc4)CC3)no2)c1
i	0.78	Brc1cc2c(cc1[C@H]1Nc3ccccc3[C@H]3C=CC[C@H]31)OCO2
i	0.46	Cc1ccccc1CN1C(=O)c2ccccc2S(=O)c2ccc(C(=O)NCc3ccccc3Cl)cc21 (stereo not given)

# Reprinted from the part before: 6 compounds; new compounds follow.
Choline anaer gr	Choline anaer gr early	Compound
i	-0.53	COc1ccc(NC(=O)C2CCCN(S(=O)(=O)c3cc4c(cc3C)NC(=O)CO4)C2)cc1 (stereo not given)
i	1	Cc1cccc(CSc2nc3ccncc3n2CC(=O)Nc2cccc(Cl)c2C)c1
i	-0.89	CC(C)NC(=O)CN1CCN(c2ccc(NC(=O)C3CC3)c(C(=O)O)c2)CC1
i	3.4	Cc1cccc(-c2nc(C3CCN(C(=O)c4ccc(Br)cc4)CC3)no2)c1
i	0.78	Brc1cc2c(cc1[C@H]1Nc3ccccc3[C@H]3C=CC[C@H]31)OCO2
i	0.46	Cc1ccccc1CN1C(=O)c2ccccc2S(=O)c2ccc(C(=O)NCc3ccccc3Cl)cc21 (stereo not given)
i	-0.12	CCn1c(C2CCCN2C(C)=O)nc2ccccc21 (stereo not given)
i	-0.22	Cc1ccc(-c2cnc(N3CCCC(C(=O)NCc4ccc5c(c4)OCO5)C3)nc2)cc1 (stereo not given)
i	-0.56	COC(=O)Cn1c(C)cc(=O)n2nc(-c3ccccc3C)nc12
i	-1.4	Cc1cccc(NC(=O)NCCCn2c(-c3ccncc3)nc3cccnc32)c1C
i	-0.52	O=c1[nH]cccc1-c1nc(-c2ccccc2)no1
i	-1.1	CCCn1c(=O)c(-c2ccc(C(=O)NCC3CCCO3)cc2)nc2ccccc21 (stereo not given)
i	-0.5	CC1=C(C(N)=O)C(c2ccccc2)n2ncnc2N1 (stereo not given)
i	0.4	CNC(=O)N1CCC(OC(C)=O)CC1
i	-0.16	O=C(NC1CCCC1)C1CCCN(c2ncnc3c2oc2ccccc23)C1 (stereo not given)
i	-0.84	CCCCSc1c(CC)cnc2c1c(=O)n(C)c(=O)n2C
i	-1.4	COc1ccc(OC)c(NC(=O)c2cccc(N3CCCS3(=O)=O)c2)c1
i	0.42	Cc1nc(C)c(-c2nc(-c3ccc4c(c3)[nH]c(=O)n4C(C)C)no2)s1

# Shown with values under each structure: entries from further up
# Values in the order: Choline anaer gr, Choline anaer gr early
Cc1cccc(NC(=O)NCCCn2c(-c3ccncc3)nc3cccnc32)c1C
→ i, -1.4
CNC(=O)N1CCC(OC(C)=O)CC1
→ i, 0.4
CCCn1c(=O)c(-c2ccc(C(=O)NCC3CCCO3)cc2)nc2ccccc21 (stereo not given)
→ i, -1.1
CCCCSc1c(CC)cnc2c1c(=O)n(C)c(=O)n2C
→ i, -0.84
COc1ccc(OC)c(NC(=O)c2cccc(N3CCCS3(=O)=O)c2)c1
→ i, -1.4

# (further entries)
Choline anaer gr	Choline anaer gr early	Compound
i	-0.01	COc1ccc(-c2cc3n(C)c(C)c(CCC(=O)Nc4ccc5c(c4)OCO5)c(=O)n3n2)cc1OC
i	-0.69	O=C(CC1CCCC1)N1CCCC(c2nc3c(nnn3Cc3cccc(Cl)c3)c(=O)[nH]2)C1 (stereo not given)
i	1.4	Cc1ccc2nc3c(cc2c1)CCN3S(=O)(=O)c1ccc(C(C)C)cc1
i	0.58	NC(=O)c1ccccc1NC(=O)c1ccc(=O)n(Cc2cccc(Cl)c2)c1
i	0.1	COc1cccc(-c2cc(N3CCN(C(=O)NCC4CCCO4)CC3)ncn2)c1 (stereo not given)
i	0.06	COc1ccccc1C1Nc2ccccc2-n2cc3c(=O)n(C)c(=O)n(C)c3c21 (stereo not given)
i	1.2	Cc1sc(-c2nc(-c3ccccc3)no2)cc1S(=O)(=O)NC1CCCC1
i	-1.4	CCc1onc(C)c1C1CCCN1C(=O)Nc1ccc(Br)cc1 (stereo not given)
i	1.7	O=c1ccc2cc3c(=O)n(-c4ccc(F)cc4)[nH]c3oc-2c1
i	-0.98	O=C1CC(c2ccccc2OCc2ccc(F)cc2)c2cnn(-c3nc4ccccc4s3)c2N1 (stereo not given)
i	-2.7	CO/N=C(/C(=O)N[C@@H]1C(=O)N2C(C(=O)OCSC(=O)c3ccco3)=CCS[C@H]12)c1csc(N)n1
i	-1.4	CCCCN[C@H]1CS(=O)(=O)C[C@@H]1S(=O)(=O)c1cccs1
i	-0.3	CCC(=O)N1c2ccccc2NC2=C(C(=O)CC(c3ccccc3)C2)C1c1ccccc1 (stereo not given)
i	0.57	CCC(C)[C@H]1O[C@]2(CCC1C)CC1C[C@@H](CC=C(C)C(O[C@H]3CC(OC)C(O[C@H]4CC(OC)C(O)C(C)O4)C(C)O3)C(C)C=CC=C3CO[C@@H]4C(O)C(C)=C[C@H](C(=O)O1)[C@]34O)O2 (stereo not given in full)
i	-0.35	Cc1ccc(Cn2c(=O)c(N3CCCC(C(=O)NCc4ccccc4Cl)C3)nc3ccccc32)cc1 (stereo not given)
i	-1.6	Cc1noc2ncnc(Nc3ccc(F)cc3F)c12
i	0.39	Cc1ccc(CNC(=O)N2CCC(n3c(C)nc4cc(C(=O)N5CCCC5)ccc43)CC2)cc1
i	0.76	COc1cccc(-c2noc(CSc3nc4cc(-c5ccccc5)sc4c(=O)n3C)n2)c1
i	0.26	Cc1sc(S(=O)(=O)N2CCCC2)cc1NC(=O)C1CC(=O)N(c2cccc(Cl)c2)C1 (stereo not given)
i	0.59	CCOc1cc(CN2CCCC2c2cc(C(C)C)no2)ccc1O (stereo not given)
i	0.36	CCSc1nc2ccc(NS(=O)(=O)c3ccc(F)c(C)c3)cc2s1
i	-0.61	O=C(NC1CCCCC1)C1CCCN(c2ncc(-c3cccc(F)c3)cn2)C1 (stereo not given)

# Three of the compounds above, with two lines to a compound.
# Results follow in this order: Choline anaer gr | Choline anaer gr early
CCOc1cc(CN2CCCC2c2cc(C(C)C)no2)ccc1O (stereo not given)
    i | 0.59
CCSc1nc2ccc(NS(=O)(=O)c3ccc(F)c(C)c3)cc2s1
    i | 0.36
O=C(NC1CCCCC1)C1CCCN(c2ncc(-c3cccc(F)c3)cn2)C1 (stereo not given)
    i | -0.61

# Screens deposited in PubChem BioAssay by ICCB-Longwood Screening Facility, Harvard Medical School.
